AF4-AF9 inh: blocks AF4 peptide binding to human AF9 | AID 651704 | actives 0.47% (n = 350,000) | inhibition, % at 10 µM | AlphaScreen, biotin-AF4 peptide binding to FLAG-AF9 | P42568;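 active means every replicate reaching a set inhibition limit, whatever the replicate mean, cut at about 25% in these data; inconclusive means mean inhibition reaches that limit but some replicates miss it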;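 further: 0% = plate neutral control median and 100% = total signal loss; the record names both 10 and 1 µM as test concentration; the first replicate is given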
Target sequence (P42568 whole entry, looked up): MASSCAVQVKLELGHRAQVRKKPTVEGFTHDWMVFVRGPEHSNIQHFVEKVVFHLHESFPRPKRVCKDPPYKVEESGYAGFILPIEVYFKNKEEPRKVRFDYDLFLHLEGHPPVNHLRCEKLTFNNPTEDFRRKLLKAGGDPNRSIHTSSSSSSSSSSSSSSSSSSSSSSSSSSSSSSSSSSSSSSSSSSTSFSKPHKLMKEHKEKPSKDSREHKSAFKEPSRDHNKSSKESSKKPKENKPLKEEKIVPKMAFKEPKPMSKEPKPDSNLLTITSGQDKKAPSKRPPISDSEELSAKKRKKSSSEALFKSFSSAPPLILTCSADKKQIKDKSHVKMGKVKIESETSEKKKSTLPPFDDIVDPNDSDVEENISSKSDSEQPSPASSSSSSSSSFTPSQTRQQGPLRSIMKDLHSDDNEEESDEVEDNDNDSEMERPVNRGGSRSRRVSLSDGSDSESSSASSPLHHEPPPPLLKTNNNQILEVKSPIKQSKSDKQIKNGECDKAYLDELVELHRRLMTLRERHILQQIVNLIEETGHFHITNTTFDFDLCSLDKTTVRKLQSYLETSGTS
Vif A3G: HIV-1 Vif–A3G interaction blockers – biochemical, TR-FRET, GST-Vif 1-94, biotin-A3G peptide, dose response retest, primary screen (AID 1117319); TR-FRET GST-Vif / biotin-A3G peptide binding; higher % means a stronger effect; test concentration not given here; strong numbers were not always called active; inhibition, %; hits with a dose series show IC50 in µM; actives 0.57% (n = 260,000);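 active means above the screen mean plus three standard deviations and confirmed in dose response; inconclusive means results disagree or hit not tested in dose response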;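 further: Vif residues 1-94 fused to GST binding biotinylated APOBEC3G peptide 110-148; 0% = full assay without inhibitor and 100% = GST in place of GST-Vif; retest series ran down from 100 µM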
Ecoli rRNA inh: inhibitors of bacterial rRNA selective over humanized ribosomes; actives 1.6% (n = 350,000); GFP signal change (wild-type ribosome), % (test concentration not listed); E. coli WT GFP vs humanized-ribosome RFP mutants, fluorescence, 24 h; stronger effect = lower value; DMSO median 0, no signal -100; AID 720706;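 active means significant combined selectivity score with lowered wild-type GFP, culture density cut under 30%, mutant RFP and density less affected; inactive means any of these conditions unmet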; further: one replicate is shown; some compounds called inactive have numbers as strong as hits
FGF22 binding: shifts melting point of recombinant human FGF22; recombinant FGF22 thermal shift, SYPRO orange fluorescence; percent of sucrose octasulfate shift, DMSO zero; calls only at 9.99 µM; actives 1.5% (n = 340,000); Q9HCT0;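 active means melting point raised past a set limit in the mean and every replicate; inconclusive means no clear call; three in four hits are not shown here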
Target sequence (Q9HCT0 whole entry, looked up): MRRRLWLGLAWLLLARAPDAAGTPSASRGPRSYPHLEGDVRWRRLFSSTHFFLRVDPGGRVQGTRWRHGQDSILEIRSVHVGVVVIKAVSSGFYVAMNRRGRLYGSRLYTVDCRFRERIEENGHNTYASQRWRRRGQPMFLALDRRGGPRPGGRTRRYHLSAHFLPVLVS
ALR inh: human ALR oxidase inhibition via reduced H2O2. AID 485317. purified ALR, DTT oxidation, H2O2 HRP-luminol luminescence. actives 3.8% (n = 290,000). inhibition, % (concentration not given with the values);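 active means mean and each replicate at 75% or more; inconclusive means only one of the two met; inactive means neither met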;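 further: stock transfer was 7.5 nL into about 7.5 µL; 0% = neutral wells and 100% = wells with inactivated enzyme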
Target sequence (P55789 whole entry, looked up): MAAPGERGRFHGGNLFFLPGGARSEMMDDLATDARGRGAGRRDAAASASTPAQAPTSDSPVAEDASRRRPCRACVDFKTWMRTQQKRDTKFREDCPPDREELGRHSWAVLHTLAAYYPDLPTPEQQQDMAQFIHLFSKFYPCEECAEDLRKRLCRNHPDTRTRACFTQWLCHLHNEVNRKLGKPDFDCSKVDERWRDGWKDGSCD
E coli growth: E. coli growth inhibition; OD600 absorbance (no concentration beside the values); Escherichia coli growth, OD600, 23 h; stronger effect = lower value; actives 0.21% (n = 330,000); AID 1053175;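 active means OD600 absorbance below the run mean of sample wells minus 3.6 SD, in any replicate, cut at about 0.56 in these data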;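 further: stock transfer was 300 nL into about 60 µL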
HNF4A DNA FP: change in binding of human HNF4 alpha to DNA. P41235. HNF4a-FITC DNA binding, fluorescence polarization, 1 h. activity change, % at 10 µM. actives 0.3% (n = 360,000). AID 1224865; in the data active means activity change above about 30%, passing the limit was not always enough;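 further: controls were the assay level and a saturating level of protein; the project sought stronger binding though the title names inhibitors; some compounds called inactive have numbers as strong as hits; positive values seem to mean higher polarization but the record does not say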
Ecoli rRNA inh OD600: second read-out of Ecoli rRNA inh, no call of its own (marks repeat the call); OD600 change, %; measured here: OD600 growth;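 optical density of the mix in the first replicate; 0 = DMSO median and -100 = no signal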
Ecoli rRNA inh RFP: further read-out of Ecoli rRNA inh, marked with its call; RFP signal change, %; measured here: RFP humanized mutant strains;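 first replicate; 0 = DMSO median and -100 = no signal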
* = called active by the depositor; i = inactive; ? = inconclusive; · = no result given; & = joins results of further samples.

SMILES,AF4-AF9 inh,Vif A3G,Ecoli rRNA inh,Ecoli rRNA inh OD600,Ecoli rRNA inh RFP,FGF22 binding,ALR inh,E coli growth,HNF4A DNA FP
Cc1ccc(N(C(=O)CNC(=O)c2ccco2)C(C(=O)NC2CCCCC2)c2ccncc2)c(C)c1 (configuration not stated),-0.3,·,·,·,·,i,-5.1,0.707,-1.0
COc1cccc(NC(=O)N2C[C@@H](O)COC[C@@H]3O[C@H](CC(=O)NCCCN4CCOCC4)CC[C@H]32)c1,0.7,·,6.8,1.4,0.9,i,·,·,·
CCCc1cn(CC[C@H]2CC[C@@H](NC(=O)Nc3ccc4c(c3)OCO4)[C@H](CO)O2)nn1,0.3,·,3.2,-1.7,-0.4,i,·,·,·
Cc1noc(C)c1NC(=O)Nc1ccc2c(c1)C(=O)N(C)[C@@H]1CC[C@@H](CC(=O)N[C@@H]3CCN(Cc4ccccc4)C3)O[C@H]1CO2,0.5,·,-1.1,0.0,-1.9,i,·,·,·
COc1cc(OC)cc(C(=O)Nc2ccc(Cn3ccnc3)cc2)c1,-2.5,-8.5%,7.8,2.4,1.2,i,-2.8,0.667,-5.2
Cc1noc(C)c1NC(=O)Nc1cccc2c1O[C@@H](CN(C)Cc1ccc3c(c1)OCO3)[C@H](C)CN([C@H](C)CO)C2=O,-1.1,·,-3.4,-1.9,-0.9,i,·,·,·
Cc1cccn2c(=O)c(/C=N/O)c(Nc3ccccc3F)nc12,-0.2,-2.5%,14.0,7.6,3.0,i,·,·,2.3
Clc1ccc(-c2cn3nc4c(nc3n2)CCCC4)cc1,·,?,·,·,·,·,-1.0,0.781,-27.6
CSc1nnc(CCNS(=O)(=O)c2ccccc2Br)n1C,-1.1,·,5.1,5.6,-2.8,i,·,0.668,-1.2
CC(C)NC(=O)N(C)C[C@@H]1Oc2ccc(NS(=O)(=O)c3ccc(Cl)cc3)cc2CC(=O)N([C@@H](C)CO)C[C@H]1C,0.2,·,4.9,3.2,-2.6,i,·,·,·
CCCCCC(=O)NNC(=S)NC(=O)c1ccccc1[N+](=O)[O-],-3.1,10.7%,-32.2*,-5.6*,-9.1*,i,1.5,0.576,0.8
CN1/C(=C\C(=O)c2cccnc2)C(C)(C)c2ccccc21,0.1,-7.5%,-28.5,-31.5,-3.7,i,17.3,0.649,-2.1
CNS(=O)(=O)c1ccc(NS(=O)(=O)c2ccccc2F)cc1,0.2,3.0%,3.7,1.9,-5.3,i,·,0.698,0.4
CC(C)(C)OC(=O)C[C@H]1C/C=C\C[C@H](CC(=O)N(CCO)Cc2ccccc2)C(=O)N[C@@H](c2ccccc2)COC1=O,-3.0,·,12.8,-0.3,-3.0,i,-1.9,·,2.2
COc1ccc(OC)c(/C=C2\Oc3cc(OCC(=O)N4CCC(C(=O)O)CC4)ccc3C2=O)c1,-2.5,·,·,·,·,i,2.1,0.767,3.4
COc1ccc(/C=C/C(=O)OCC(=O)NC2CCCCCCC2)cc1,2.0,·,-1.9,-1.4,0.6,i,21.9,0.707,-3.3
COc1ccc(/C=C2\CC/C(=C\c3ccc(OC)c(OC)c3)C2=O)cc1OC,20.0,-3.9%,·,·,·,·,2.8,0.723,6.5
O=C(N[C@@H]1c2ccccc2CC[C@@H]1OCc1ccccc1)c1ccc(-c2ccccc2)cc1,-2.4,5.7%,13.4,13.8,-0.5,i,·,0.714,-3.2
O=C(C1=C[C@H](C2CC2)C[C@H](OCc2ccc(CO)cc2)O1)N1CCN(Cc2ccc3c(c2)OCO3)CC1,4.6&5.9,-12.0%,-16.6,-15.2,-5.5,i,-5.5,·,-0.9
COc1ccc(-n2c(SCC(=O)NC3CC3)nc3ccccc3c2=O)cc1OC,2.9,2.9%,0.8,-1.6,-1.3,i,4.1,0.71,1.1
O=C(Nc1c2c(nn1-c1ccc(F)cc1)CS(=O)(=O)C2)c1ccc(Br)o1,-0.2,11.6%,1.7,1.8,-4.2,i,4.2,0.707,0.9
COCC(=O)N1[C@H](CO)[C@@H]2c3ccccc3NC[C@@H]21,1.7,·,3.6,0.1,-0.6,i,·,·,·
CCN1[C@@H]2Cn3c(ccc(-c4ccccc4OC)c3=O)[C@H]1[C@@H](C(=O)N[C@H](C)c1ccccc1)[C@@H]2CO,-2.9,·,1.1,3.0,1.7,i,·,·,·
Cc1cccc2c(SCC(N)=O)nc(-c3ccccc3)nc12,-6.8,-8.0%,4.3,7.2,-1.4,i,-2.5,0.7,2.4
CC(NC(=O)c1cc(S(=O)(=O)N2CCCC2)ccc1Cl)c1ccccn1 (configuration not stated),-0.5,11.6%,-2.4,-12.2,-0.9,i,0.9,0.71,1.4
CCC(=O)N1[C@@H](CO)[C@@H]2c3ccccc3N(S(=O)(=O)c3ccccc3C)C[C@@H]21,-0.4,·,-4.2,-4.6,-0.2,i,·,·,·
CC(C)(C)n1ncc2c(=O)n(Cc3c(F)cccc3Cl)cnc21,·,2.5%,·,·,·,·,-4.5,0.706,-2.2
C[C@H](O)C#Cc1cnc2c(c1)C(=O)N([C@@H](C)CO)C[C@H](C)[C@H](CN(C)CC1CCOCC1)O2,-2.1,·,2.4,9.9,-1.2,i,·,·,·
COc1ccc(OC)c(Nc2nc(-c3c(C)nc4ncccn34)cs2)c1,1.5,·,-8.0,-19.2,0.3,i,44.8,0.669,0.2
CCc1c(C)nc2nc(NC(C)=O)[nH]n2c1=O,·,16.2%,·,·,·,·,2.1,0.701,-1.8
O=C(O)C1=CCNCC1,-3.6,·,3.9,9.3,-1.4,i,-17.4,0.67,2.2
CC(=NCc1ccco1)c1c(O)n(C2CCCCC2)c(=O)[nH]c1=O,·,1.5%,·,·,·,·,34.3,0.628,2.8
COc1cccc(S(=O)(=O)N(C)C[C@@H]2Oc3ncc(-c4cccc(C(F)(F)F)c4)cc3C(=O)N([C@H](C)CO)C[C@@H]2C)c1,-0.8,·,-2.8,4.9,-1.0,i,·,·,·
COc1ccc(-c2cc(C(=O)Oc3ccc([N+](=O)[O-])cc3)c3ccccc3n2)cc1,·,19.5%,·,·,·,·,-1.9,0.717,0.9
O=P(O)(CCCP(=O)(O)CCc1ccccc1)CCc1ccccc1,·,2.0%,·,·,·,·,-13.2,0.754,-2.3
CCOC(=O)c1cc2cc(OC)ccc2nc1C,·,4.6%,·,·,·,·,-1.1,0.679,-2.0
Oc1[nH]c2ccccc2c1N=Nc1c(F)c(F)c(F)c(F)c1F,1.2,8.0%,1.5,-3.0,1.9,i,·,·,7.8
CNCc1ccccc1Sc1cccc(O)c1,·,-5.0%,·,·,·,·,37.1,0.663,2.2
CCN(CC(=O)NC(C)C)Cc1nc2sc3c(c2c(=O)[nH]1)CCC3,·,7.4%,·,·,·,·,-1.7,·,2.4
CO[C@@H]1CN(C)C(=O)c2ccc(NC(C)=O)cc2OC[C@@H](C)N(C(=O)C2CC2)C[C@@H]1C,-1.0,·,-0.2,3.7,-1.4,i,·,·,·

Profiles as entered above. Screens in order: AF4-AF9 inh	Vif A3G	Ecoli rRNA inh	Ecoli rRNA inh OD600	Ecoli rRNA inh RFP	FGF22 binding	ALR inh	E coli growth	HNF4A DNA FP
Oc1[nH]c2ccccc2c1N=Nc1c(F)c(F)c(F)c(F)c1F across the screens: 1.2	8.0%	1.5	-3.0	1.9	i	·	·	7.8
O=P(O)(CCCP(=O)(O)CCc1ccccc1)CCc1ccccc1 across the screens: ·	2.0%	·	·	·	·	-13.2	0.754	-2.3
CCOC(=O)c1cc2cc(OC)ccc2nc1C across the screens: ·	4.6%	·	·	·	·	-1.1	0.679	-2.0
CO[C@@H]1CN(C)C(=O)c2ccc(NC(C)=O)cc2OC[C@@H](C)N(C(=O)C2CC2)C[C@@H]1C across the screens: -1.0	·	-0.2	3.7	-1.4	i	·	·	·
COc1ccc(-c2cc(C(=O)Oc3ccc([N+](=O)[O-])cc3)c3ccccc3n2)cc1 across the screens: ·	19.5%	·	·	·	·	-1.9	0.717	0.9

Further results:
SMILES,AF4-AF9 inh,Vif A3G,Ecoli rRNA inh,Ecoli rRNA inh OD600,Ecoli rRNA inh RFP,FGF22 binding,ALR inh,E coli growth,HNF4A DNA FP
Cc1noc(C)c1NC(=O)N[C@H]1CC[C@@H](CCNC(=O)C2CCC2)O[C@@H]1CO,-5.0,·,-0.9,5.5,-0.5,i,·,·,·
Cc1c(NC(=O)C2CC(c3c(F)cccc3Cl)=NO2)c(=O)n(-c2ccccc2)n1C (configuration not stated),4.0,-1.0%,12.8,9.5,2.0,i,2.0,0.656,-6.1
C[C@H](CO)N1C[C@H](C)[C@@H](CN(C)S(C)(=O)=O)OCCCC[C@H](C)Oc2ccc(NC(=O)Nc3ccc(C(F)(F)F)cc3)cc2C1=O,4.4,·,0.6,-8.3,2.6,i,·,·,·
Cn1nc([N+](=O)[O-])c(C(C#N)c2nc3ccccc3n2C)c(Cl)c1=O (configuration not stated),·,·,·,·,·,·,99.6*,0.693,-38.0
CCOc1ccc(-c2csc(N)c2C(=O)OC)cc1,·,4.9%,·,·,·,·,29.4,0.701,3.9
COc1cccc(CN(C)Cc2nc3cc(C(F)(F)F)ccc3c(=O)[nH]2)c1,36.1*,0.6%,-7.5,-1.6,1.7,i,1.8,0.682,-1.3
Cc1ccc(OCC(=O)NCCC2=CCCCC2)cc1,·,-2.6%,·,·,·,·,·,0.744,2.0
O=C(NNc1nccc(C(F)(F)F)n1)Nc1cccc(Cl)c1,·,-1.1%,2.2,1.6,-0.5,·,-1.0,0.636,-0.8
O=C(NNc1ccc(-c2csnn2)cc1)c1ccccc1C(F)(F)F,·,·,1.7,-1.4,-1.6,i,98.1*,0.609,-0.6
Cc1ccc(O)c(NC(=O)Cc2ccc3ccccc3c2)c1,-4.2,-2.7%,-19.0,-23.2,-2.5,i,41.7,0.617,-0.2
CC(C)NC(=O)N(C)C[C@H]1Oc2ncc(-c3ccc(C(=O)N(C)C)cc3)cc2C(=O)N([C@@H](C)CO)C[C@H]1C,-2.0,·,3.8,4.8,0.4,i,·,·,·
NS(=O)(=O)c1ccc(Nc2nc(-c3ccc4ccccc4c3)cs2)cc1,·,?,·,·,·,·,-4.8,0.68,0.8
Nc1c(-c2ccccc2)c(CN2CCOCC2)nn1-c1ccc(F)cc1,4.2,·,5.8,1.0,-4.0,i,32.6,0.643,-4.5
COc1ccc(/C=C(\C#N)c2nc3ccc(C)cc3[nH]2)cc1Oc1ccc(C(F)(F)F)cc1[N+](=O)[O-],·,26.1%,·,·,·,·,-0.3,0.666,4.1
O=C(Nc1nc(-c2cccs2)cs1)c1ccco1,2.9,-8.6%,-27.1,-37.2,-5.0,·,72.3,0.622,2.4
Cc1cc(NC(=O)c2ccoc2C)no1,·,25.1%,·,·,·,·,12.8,0.675,-1.2

High-throughput results deposited in PubChem by several laboratories.

Only part of the results is shown; count on the stated rates, not on these rows.
